# Bioassay records as filed in PubChem BioAssay.
# StopGo FLuc: lowers the firefly signal of an FMDV 2A StopGo reporter; HEK cells with a luciferase reporter of 2A StopGo recoding; Potency, µM (series often up to 57.5 µM), for the others: top-dose signal change, negative = less light; hit rate 0.23% among 120,000; active = well fitted falling curve with a large enough effect; inconclusive = small, poorly fitted or top-dose-only effect; inactive = no such curve, though single readings can be large or run the other way; note: nearly all actives have a fitted effect of over 60% in size; overnight with compound
# StopGo RLuc: FMDV 2A StopGo reporter, Renilla signal. hit rate 0.32% among 120,000. AID 1745857. HEK cells with a luciferase reporter of 2A StopGo recoding. Potency, µM (top dose mostly 57.5 µM), for the others: at the highest dose signal change, negative = less light; active means well fitted falling curve with a large enough effect; inconclusive means small, poorly fitted or top-dose-only effect; inactive means no such curve, though single readings can be large or run the other way; note: nearly all actives have a fitted effect of over 55% in size; overnight with compound
# * hit, by the source's call; ? = inconclusive; & = joins results of further samples; [ ] = dose if it differs, or a comment. % is set by controls: 0 for no effect and ±100 for the full control effect; potency is the fitted concentration of half-maximal effect. The list is partial (hit frequency here may not be typical).
# Start of the data: the first five compounds as a preview:
compound,StopGo FLuc,StopGo RLuc
Cc1ccc(NC(=O)Cn2cnc3c(oc4ccccc43)c2=O)cc1Cl,-3.2%,8.0%
CCOC(=O)c1c(C)oc2ccc(N(C(=O)c3ccncc3)S(=O)(=O)c3ccc(CC)cc3)cc12,-27.1%,101.4%[activator]
Cc1ccc(Cl)cc1NC(=O)COC(=O)c1ccc2ccccc2n1,0.8%,-8.3%
CCCCNC(=O)CSc1c2c(nc3ccc(Cl)cc13)CCCC2,8.8%&9.1%,20.9%&11.4%
COc1ccc(-c2nc(CSCC(=O)NCCC(C)C)c(C)o2)cc1OC,5.2%,8.7%

# Main list, from the first entry:
compound,StopGo FLuc,StopGo RLuc
Cc1ccc(NC(=O)Cn2cnc3c(oc4ccccc43)c2=O)cc1Cl,-3.2%,8.0%
CCOC(=O)c1c(C)oc2ccc(N(C(=O)c3ccncc3)S(=O)(=O)c3ccc(CC)cc3)cc12,-27.1%,101.4%[activator]
Cc1ccc(Cl)cc1NC(=O)COC(=O)c1ccc2ccccc2n1,0.8%,-8.3%
CCCCNC(=O)CSc1c2c(nc3ccc(Cl)cc13)CCCC2,8.8%&9.1%,20.9%&11.4%
COc1ccc(-c2nc(CSCC(=O)NCCC(C)C)c(C)o2)cc1OC,5.2%,8.7%
Cc1oc2ccc(O)c(CN3CCN(C)CC3)c2c1C(=O)Nc1cccc(C(F)(F)F)c1,3.9%,-8.3%
CCNc1ccc(C)cc1C,-8.7%,-8.5%
O=C(CSc1nc2ccc(Cl)cc2[nH]1)NC1CCCC1,-25.8%,-29.6%
Cc1sc2ncnc(N3CCN(c4ccccc4)CC3)c2c1-c1ccc(F)cc1,14.2%,6.8%
CCCCNS(=O)(=O)c1cc(-c2nn(C)c(=O)c3ccccc23)ccc1C,-9.2%,-33.2%
COc1cc(OC)cc(C(=O)N(C)CCCNC(=O)c2nc3ccccc3c(=O)[nH]2)c1,31.9%[activator],-2.3%
COc1ccc2c(CCNC(=O)c3ccccc3OC)c[nH]c2c1,16.9%,169.7%[activator]
CCN(C(=O)c1sc2nc3n(c(=O)c2c1C)CCCCC3)c1ccccc1F,3.2%,-0.3%
CN1C(=O)COc2ccc(NC(=O)C(=O)NC3CCCC3)cc21,39.7%[activator],30.4%[activator]
N#Cc1ccc(NCc2ccccc2Cl)cc1,5.4%,0.0%

# Other compounds
compound,StopGo FLuc,StopGo RLuc
COCCCNC(=O)CSc1ccc(C)cc1C,1.6%,1.6%
Cc1ccc(NC(=O)Cn2cc(S(=O)(=O)c3ccccc3)c(=O)c3cc4c(cc32)OCO4)cc1,-9.7%,-10.1%
CCOC(=O)C1=C(C)OC(n2cccc2)=C(C#N)C1c1cc(OC)c(OC)c(OC)c1 (stereo not given),?,-29.8%
CCc1ccc(-c2cc3c(=O)[nH]nc(SCC(=O)NC(C)CC)n3n2)cc1 (stereo not given),76.1%[activator],-2.7%
Cn1c(=O)c2c(nc(Cl)n2CC(=O)N(C2CC2)C2CCS(=O)(=O)C2)n(C)c1=O (stereo not given),55.7%[activator],27.2%
O=C(OCc1cccc(F)c1)c1ccc(C2Nc3ccccc3S(=O)(=O)N2)cc1 (stereo not given),0.0%,9.1%
CCOc1ccc(CNC(=O)c2c(C)nn(-c3ccc(F)cc3)c2-n2cccc2)cc1,-2.9%,9.9%
O=C(c1sc2cccc(F)c2c1Cl)N1CCCCC1,167.0%[activator],95.6%[activator]
O=C(COc1ccc(F)cc1)NCC(c1ccc(Cl)cc1)N1CCCCC1 (stereo not given),-13.3%,-16.2%
CCCCOc1ccc(/C=C2\CCc3cc(OC)ccc3C2=O)cc1OCC,-8.4%,14.3%
COc1cc(NC(=O)c2cc(=O)c3cc(C)ccc3o2)cc(OC)c1,3.7%,-8.8%
O=C(CCSCCc1ccccn1)Nc1cccc(Cl)c1,5.2%,3.7%
CC(C)CC(=O)Nc1c(C(=O)N2CCN(c3ccccc3)CC2)oc2ccccc12,0.0%,-5.9%
NC1=NC(c2ccccc2)C=C(c2ccccc2)O1 (stereo not given),0.0%,70.3%[activator]
CC(Sc1nncn1-c1cccc(Cl)c1)c1nc2ccccc2c(=O)[nH]1 (stereo not given),-10.6%,-17.9%

# (more compounds)
compound,StopGo FLuc,StopGo RLuc
CCOc1cc(C2CC(=O)Nc3c(-c4ccc(OC)cc4)csc32)ccc1OCC(N)=O (stereo not given),12.6µM*,8.91µM*
CC1CCC(N2CC(=O)N(C3CCCCC3)C(c3ccc(Cl)cc3)C2=O)CC1 (stereo not given),0.0%,153.5%[activator]
COc1ccc(-c2nc3nc(C)cc(Nc4ccccc4C)n3n2)cc1,101.0%[activator],63.5%[activator]
O=C(CN1C(=O)COc2ccc(S(=O)(=O)N3CCOCC3)cc21)N1CCN(c2cccc(C(F)(F)F)c2)CC1,-11.9%,-11.8%
COCCNc1nc2c(c(=O)n(C)c(=O)n2C)n1CCc1ccccc1,-29.9%,-36.7%
Cc1cccc(C)c1OCCCN1CCC(C)CC1,-4.7%,-0.5%
O=C(Nc1ccc(-c2ccccc2)cc1)c1ccccc1Cl,102.9%[activator],36.6%
COc1ccc(C2=C(O)C(=O)N(c3ccc(OC)cc3)C2c2cccc(Br)c2)cc1 (stereo not given),-8.1%,22.4%
COc1ccccc1NC(=O)CCN1CCC(C(N)=O)CC1,0.0%,20.8%
CCCNC(=O)COC(=O)c1ccc2ccccc2n1,-9.3%,-10.6%
Cc1c(C)n2c3c(=O)[nH]c(=O)n(C)c3nc2n1CCN1CCN(Cc2ccc(F)cc2)CC1,3.8%,-6.7%
CSc1ccc(C2CC(C)=NN2c2nc(-c3ccccc3)cs2)cc1 (stereo not given),0.0%,13.8%
O=C(O)c1ccc(CNC(=O)c2ccccc2C(F)(F)F)cc1,17.6%,17.5%
COC(=O)c1cnc(NC(=O)Cc2cccc3ccccc23)s1,-1.5%,-6.9%
N#Cc1ccc(OC[C@@H](O)CN2CCC(C(O)(c3ccccc3)c3ccccc3)CC2)c(F)c1,-15.6%,-7.6%

# (continued)
compound,StopGo FLuc,StopGo RLuc
CCOC(=O)c1c(C)oc2nc(C)nc(Nc3ccc(CC)cc3)c12,103.4%[activator],105.2%[activator]
COc1cccc(NC(=O)c2cn(C3CCCCC3)c(=O)c3c2c2ccccc2n3C)c1,-2.7%,-0.5%
O=c1[nH]c(CSc2ccc(F)c(Cl)c2)nc2ccsc12,88.1%[activator],26.2%
CNc1nnc(SCc2ccc(C#N)cc2F)s1,81.5%[activator],-4.4%
Cc1ccc(-n2ncc3c(NNC(=O)C4CCCCC4)ncnc32)cc1C,0.0%,11.9%
CSc1nc(=O)c2c(n1C)NC(=O)CC2c1cc(F)cc(F)c1 (stereo not given),-9.3%,0.8%
O=C(NCC(c1cccs1)N1CCCCC1)c1cc(=O)c2cc(Br)ccc2o1 (stereo not given),-15.3%,1.1%
COc1ccc(-n2ncc(C(=O)N3CCN(c4ncccn4)CC3)c2C2CCN(C(=O)OC(C)(C)C)CC2)cc1,-7.3%,5.2%
CC(=O)N1CCCc2cc(S(=O)(=O)NCc3ccc(OC(C)C)cc3)ccc21,-14.6%,20.9%
COc1ccc(Cl)cc1NC(=O)CSc1nnc2[nH]c(=O)cc(-c3ccccc3)n12,-24.0%,3.4%
CCCOC(=O)c1[nH]c(C)c(C(=O)OC)c1C,134.0%[activator],-7.9%[1.06 µM]
CNC(=O)/C=C/c1ccccc1F,21.3%,6.1%
O=C(O)c1cc(NS(=O)(=O)c2ccc(F)c(F)c2)ccc1Cl,-2.2%,0.3%
CCOc1ccc(S(=O)(=O)N2CCN(C(C(=O)O)c3c[nH]c4cc(F)ccc34)CC2)cc1 (stereo not given),-3.5%,-15.7%
CCc1c(CN(C)Cc2ccccc2)csc1C,-2.8%,1.0%

# Additional results follow:
compound,StopGo FLuc,StopGo RLuc
CC(=O)c1ccc(NC(=O)Cn2nc(-n3nc(C)cc3C)ccc2=O)cc1,10.4%,-11.8%
Cc1cccc(N2CCN(C(=O)c3nn(Cc4ccccc4)c(=O)c4ccccc34)CC2)c1C,45.8%[activator],68.6%[activator]
CCc1cccc(NC(=O)c2ccc3c(c2)c(C)c(C)n3Cc2ccc(F)cc2)c1,0.3%,8.5%
COc1cccc(Nc2nc(-c3ccc(CN(C)C(C)=O)cc3)cs2)c1,?,?
O=C(CSc1nnc2ccccn12)N1CCN(C(c2ccccc2)c2ccccc2)CC1,-20.4%,-15.0%
COc1ccc(CCNC(=O)c2cc(Nc3cc(C)cc(C)c3)nc3ccccc23)cc1OC,81.8%[activator],9.7%
COc1ccccc1CCNC(=O)C(=O)NCC(c1ccco1)S(=O)(=O)c1ccc(C)cc1 (stereo not given),?,46.0%[activator]
FC(F)(F)c1ccc(CSc2c[nH]c3ccccc23)cc1,0.0%,0.2%
Cc1c(CCNC(=O)c2ccc(Br)o2)sc2nc(-c3ccc(Cl)cc3)nn12,?,?
CC(C(=O)N1CCNC1=O)N(C)Cc1ccccc1Cl (stereo not given),15.4%,5.4%
COc1ccc(OC)c2[nH]c(C(=O)NC(C)C(=O)Nc3nc(C)cs3)cc12 (stereo not given),-11.6%,-4.5%
Cc1ccc(N2CCN(C(C(=O)O)c3cn(C)c4ccc(C(=O)O)cc34)CC2)c(C)c1 (stereo not given),5.8%,-1.4%
CC(C(=O)O)c1cccc(C(=O)c2ccccc2)c1 (stereo not given),21.9%[11.5 µM],5.9%
CCCCCSc1nc2c(c(=O)[nH]c(=O)n2C)n1CC(O)COc1ccc(CC)cc1 (stereo not given),4.3%,-1.7%
N#Cc1ccc(NCCNc2ncccn2)nc1,23.6%,16.3%

# More structures:
compound,StopGo FLuc,StopGo RLuc
Cc1[nH]c2ccc(C(=O)OCC(=O)N3CCCC3=O)cc2c1C,7.7%,26.2%
CCc1ccc2c(c1)-c1ccccc1S(=O)(=O)N2CC(=O)Nc1c(C)cccc1C,18.3%,135.8%[activator]
CS(=O)(=O)c1cccc(C(=O)N2CCCCCCC2)c1,-5.8%,-2.7%
CC(=O)N1CCc2cc(S(=O)(=O)NC(Cc3ccccc3)C(=O)Nc3cccc(C)c3)ccc21 (stereo not given),-7.3%,27.2%
Cc1ccc(NC(=O)CN(C)C(=O)c2ccc(S(=O)(=O)Nc3ccc(Cl)cc3)cc2)cc1,-3.7%,73.4%[activator]
CCn1c(=O)c2sccc2n2c(CCC(=O)Nc3cc(C)cc(C)c3)nnc12,-17.5%,-8.0%
COc1ccc(-c2nc(NCCN(C)C3CCCCC3)c3ccccc3n2)cc1,50.7%[activator],-9.3%
CCOC(=O)C1=C(CS(=O)(=O)c2ccc(OC)c(Cl)c2)NC(=O)NC1c1cccc(OC)c1 (stereo not given),-19.6%,-5.3%
O=C(Cn1ncc2ccccc2c1=O)Nc1ccc(F)c(F)c1F,12.0%,20.6%
CCSc1ccc(-c2ccc(SCC)cc2)cc1,0.0%,14.5%
CCOc1ccc(NC(=O)CSc2nc3ccsc3c(=O)n2CC)cc1,-19.4%,-9.0%
Cc1nc(C)c(C(=O)NCc2cccnc2)s1,-5.5%,-2.0%
Cn1c(SCc2csc(-c3ccsc3)n2)nnc1C1CC1,285.1%[activator],44.4%[activator]
CCc1nn(Cc2c(C)cc(C)cc2C)c(=O)c2cc3cc(C)ccc3n12,-19.1%,-9.5%
CCN1CCN(C(=O)Cn2ncc3c4ccccc4n(Cc4ccccc4)c3c2=O)CC1,-7.0%,-23.3%

# (list continues)
compound,StopGo FLuc,StopGo RLuc
CC(=O)c1cccc(NC(=O)Cn2cnc3c2c(=O)n(C)c(=O)n3C)c1,0.0%,0.0%
CCOc1ccccc1CNC(=O)c1ccc2c(c1)nc1n2CCCCC1,30.7%[activator],?
O=C(Nc1cccc(C(F)(F)F)c1)N1CCC(CN2CCCCCC2)CC1,-22.9%,-12.4%
CN(C)/C=C\C(=O)C1CC1,15.5%,6.5%
Clc1ccccc1CSc1nc(NCCc2ccccc2)c2ccccc2n1,-19.6%,-12.6%
COc1cc2nc(-c3ccc(C)cc3)oc(=O)c2cc1OC,-1.5%,7.3%
Cc1ccc(C2=NN(CC(=O)NCCc3ccccc3)C(=O)CC2)cc1,-3.8%,-12.3%
CCOc1ccc(NC(=O)c2nn(C)c3c2COc2ccccc2-3)cc1,-9.6%,-13.1%
O=C(O)c1ccccc1C(=O)/C=C/c1ccc(Cl)cc1,57.4%[activator],28.2µM*
CS(=O)(=O)c1ccc(C(=O)COC(=O)COc2ccc3ccccc3c2)cc1,8.6%,4.7%
CCc1cccc(NC(=O)c2cnc(N3CCCCC3)c3ccccc23)c1,?,?
Fc1cccc(Cl)c1CSc1nnc(-c2c[nH]c3ccccc23)n1C1CC1,8.9%,105.7%[activator]
COc1ccc(CN(C)Cc2cc(C)no2)cc1OC,17.7%,0.0%
COc1ccc(C2c3c(oc4ccccc4c3=O)C(=O)N2c2nc(C)c(C)s2)cc1 (stereo not given),-6.7%,-9.3%
C=C(C)COc1ccc(C(N)=O)cc1,50.8%[activator],8.4%

# Remaining list, next part
compound,StopGo FLuc,StopGo RLuc
CCOC(=O)c1ccccc1NC(=O)c1cccc(N2CCCCS2(=O)=O)c1,-3.5%,7.5%
Cc1ccc(C(=O)C(C)OC(=O)c2cnccn2)cc1 (stereo not given),-15.4%,-6.8%
CCCNC(=O)C1CCC(Cn2c(=O)c3sccc3n(CC(=O)N3CCCC3)c2=O)CC1 (stereo not given),0.7%,-8.3%
COc1ccc(S(=O)(=O)N(C)C2CCS(=O)(=O)C2)cc1C (stereo not given),-12.8%,-2.3%
